High-throughput results: PubChem BioAssay, National Center for Advancing Translational Sciences (NCATS)
D2 potentiator: Beta-Arrestin HTS for Positive Allosteric Modulators of the Human D2 Dopamine Receptor: Potentiators | potentiation, % (no concentration beside the values) | AID 624464, 2012 | hit rate 0.23% among 360,000 | DiscoveRx D2 beta-arrestin cells, luminescence, 90 min; 100% = 57 uM dopamine signal; active = potentiation of 50% or more; inconclusive = 30% to 50%; inactive = 30% or less;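 also: compound concentration not given in the record; tested on top of an EC20 dose of dopamine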
Target sequence (P14416 whole entry, looked up): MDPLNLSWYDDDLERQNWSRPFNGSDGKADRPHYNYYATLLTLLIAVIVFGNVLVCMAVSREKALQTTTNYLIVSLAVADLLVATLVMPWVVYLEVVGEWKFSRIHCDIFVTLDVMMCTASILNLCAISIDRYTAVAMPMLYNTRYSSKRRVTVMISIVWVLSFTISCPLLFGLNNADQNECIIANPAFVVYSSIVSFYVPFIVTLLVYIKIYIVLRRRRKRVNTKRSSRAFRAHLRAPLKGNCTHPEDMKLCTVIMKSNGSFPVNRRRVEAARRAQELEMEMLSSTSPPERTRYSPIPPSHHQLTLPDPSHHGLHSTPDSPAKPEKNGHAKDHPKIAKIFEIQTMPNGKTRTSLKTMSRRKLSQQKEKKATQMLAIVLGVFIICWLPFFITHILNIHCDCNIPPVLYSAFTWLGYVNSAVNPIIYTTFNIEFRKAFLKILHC
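PathHunter beta-arrestin assay in DiscoveRx D2 cells. Compounds were added with an EC20 of dopamine (50 nM final) for 90 min at 37 deg C. Luminescence was read 1 h after detection reagent, with 57 uM dopamine as the EC100 control.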
Six1-Eya2 inh: qHTS Assay for Inhibitors of the Six1/Eya2 Interaction; Homeobox protein SIX1 (Homo sapiens) + Protein phosphatase EYA2 (Homo sapiens), …; AlphaScreen GST-Six1/His-Eya2 binding, biochemical; active compounds read low; control for the full effect not named in the record; activity change, % (no concentration beside the values); hit rate 0.56% among 360,000; in the data active = activity change below about -65%; inconclusive = about -30% to -65%; inactive = above about -30%; also: % is scaled to controls: 0 for no effect and ±100 for the full control effect
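AlphaScreen with GST-Six1 and His-Eya2 (5X mix: 250 nM and 500 nM), glutathione donor and nickel acceptor beads; buffer 50 mM Tris pH 8.0, 300 mM NaCl, 1 mM TCEP; 1 h at 37 C in the dark.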
CtBP-E1A blk: qHTS Assay for Inhibitors of the CtBP/E1A Interaction | CtBP / adenovirus E1A interaction (AlphaScreen) | AlphaScreen GST-E1A/His-CtBP binding, 1536-well; active compounds read low; control for the full effect not named in the record | activity change, % (no concentration beside the values) | hit rate 0.49% among 340,000 | AID 651724, 2012; in the data active means activity change below about -65%; inconclusive means about -30% to -65%; inactive means above about -30%; also: % is scaled to controls: 0 for no effect and ±100 for the full control effect
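In 5 uL wells, 23 nL compound meets equimolar GST-E1A and His-CtBP (5X stock 125 nM each) for 2 h, 37 °C. Beads (5X, 50 ug/mL) then 1 h, 37 °C, dark.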
gsp agonist: qHTS for Agonist of gsp, the Etiologic Mutation Responsible for Fibrous Dysplasia/McCune-Albright Syndrome: qHTS. hit rate 0.13% among 340,000. Potency, µM (series often up to 76.9 µM), for the others: at the highest dose activation (cAMP increase), hits mostly activators. gsp mutant cells, cAMP HTRF, 30 min; control for the full effect not named in the record; active = well fitted activation curve with a large enough effect; inconclusive = small, poorly fitted or top-dose-only effect, or another doubt; inactive = no such curve, though single readings can be large or run the other way; cell line not stated here;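 also: phosphodiesterase inhibitor Ro 20-1724 added with compounds to block cAMP breakdown; potency is read from the fitted curve at half-maximal effect; nearly all actives have a fitted effect of over 60% in size; about a fifth of the inactives were tested at one dose only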
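Cells in DMEM/10% FBS with G418 were pretreated with compounds in DMSO plus […] (300 uM stock) for 30 min at 37C. cAMP was measured by HTRF (cAMP-d2 plus anti-cAMP antibody-K) after 30 min at room temperature.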
D2 ag: Beta-Arrestin HTS for Positive Allosteric Modulators of the Human D2 Dopamine Receptor: Agonists; DiscoveRx PathHunter D2 beta-arrestin, luminescence, 90 min; 100% = 57 uM dopamine signal; hit rate 0.084% among 360,000; AID 624465, 2012; activation, % (concentration not given with the values); D(2) dopamine receptor (Homo sapiens), P14416; in the data active = activation above about 40%; inconclusive = about 15% to 40%; inactive = below about 15%; also: compound concentration not given in the record; the text of the record calls up to 30% inactive
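DiscoveRx PathHunter D2 beta-arrestin cells (2,100/well) attached overnight, then compound-stimulated 90 min at 37 C in HBSS/10 mM HEPES/0.1% Tween-20 buffer; beta-galactosidase complementation read by luminescence after 1 h at ambient temperature. Dopamine 57 uM final (EC100) as control.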
gsp antag: qHTS for Antagonists of gsp, the Etiologic Mutation Responsible for Fibrous Dysplasia/McCune-Albright Syndrome: qHTS; AID 624288, 2012; hit rate 0.4% among 340,000; gsp-mutant cells, cAMP HTRF, 30 min; control for the full effect not named in the record; Potency, µM (highest dose often 76.9 µM), inactives show at the top dose activity change, negative = inhibition, hits mostly inhibitors; active = falling curve of any shape with a large fitted effect; inconclusive = falling curve, mostly with a smaller effect; inactive = flat or rising curve; cell line not stated here;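 also: intracellular cAMP measured with PDE inhibitor Ro 20-1724 present during compound exposure; potency is read from the fitted curve at half-maximal effect; % is scaled to controls: 0 for no effect and ±100 for the full control effect; nearly all actives have a fitted effect of over 65% in size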
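Cells in G418 medium, seeded 16-24 h, 37C; buffer exchange to DPBS + 1 mM CaCl2, 0.5 mM MgCl2, 0.05% BSA; cpds in DMSO + […] (300 uM stock), 30 min 37C; HTRF cAMP detection.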
The depositor's hits bear a star; ? = inconclusive; · = not tested or not shown; [ ] = another dose, or the depositor's remark. Rows are unselected. About 1.4% of those tested had a hit in this group.

SMILES	D2 potentiator	Six1-Eya2 inh	CtBP-E1A blk	gsp agonist	D2 ag	gsp antag
CN1C(=O)C(C)(C)c2cc(S(=O)(=O)N(C)Cc3ccccc3)ccc21	-0.5	3.5	5.6	3.0%	1.4	6.8%
Cc1ccc(C(=O)c2cc3c(cc2[N+](=O)[O-])OCCO3)cc1	-21.6	-14.9	-6.1	14.0%[15.4 µM]	-2.2	-9.6%
CN(CC(=O)Nc1ccccc1Cl)C(=O)c1cccc(S(=O)(=O)N2CCN(Cc3ccccc3)CC2)c1	-23.0	-9.0	-0.2	14.4%[15.4 µM]	-0.6	?
CC(=O)C1=C(c2ccccc2)NC(=O)NC1c1cccs1 (centres undefined)	0.5	6.6	0.9	8.1%[15.4 µM]	-2.5	-1.6%
CCCCN(C(=O)c1cc(-c2ccco2)nc2ccccc12)c1c(N)n(CCC)c(=O)[nH]c1=O	-4.2	-17.8	·	14.3%	-1.9	7.1%
CCNc1nc(NC(C)C)nc(Oc2ccc(=O)n(C)n2)n1	-2.9	3.5	-24.5	-12.7%[15.4 µM]	3.3	19.7%
CCN(CCO)C(=O)c1ccc2nc(Cc3cccc(Cl)c3)oc2c1	-1.2	-4.5	4.5	-20.6%	9.4	-2.3%
CC(C)[C@H](NC(=O)N1CCn2c1nc1ccccc12)C(=O)N[C@H](Cc1ccccc1)C(=O)O	-22.2	0.9	3.2	·	-4.4	0.9%
COc1cccc(N2C(=NC(=O)CCC3CCCC3)SC3CS(=O)(=O)CC32)c1 (centres undefined)	-14.3	3.4	-3.4	14.1%	-5.8	1.5%
N#CC1=C(SCc2ccccc2)NC(=O)C(C#N)C12CCCC2 (centres undefined)	0.1	14.6	-3.9	21.1%	1.6	-7.6%
CC1=C(C(=O)N(C)C)C(c2cccc(Cl)c2)NC(=O)N1 (centres undefined)	-0.8	14.9	30.2	-1.2%	-3.8	1.1%
CN(C)C(=O)CSc1ccc(S(=O)(=O)N2CCCC2)cn1	8.2	9.2	-27.2	23.2%[15.4 µM]	-5.4	2.0%
CCCCNC(=S)N1CCn2cccc2C1c1ccc(F)cc1 (centres undefined)	-2.2	-26.3	-16.9	-8.9%[15.4 µM]	4.0	-8.1%
O=C(N/N=C/C1CC=CCC1)c1ccccc1O (centres undefined)	-5.0	2.4	-5.2	-3.7%	-0.4	-10.9%
COC(=O)C1CCN(S(=O)(=O)c2cc3c4c(c2)CCN4C(=O)CC3)CC1	-1.5	0.2	0.5	-8.1%[15.4 µM]	-2.2	-20.7%
Cc1cc(=O)n2nc(N3CCCC(C(=O)NCc4ccccc4Br)C3)sc2n1 (centres undefined)	0.5	-5.4	0.0	10.6%	-0.8	-8.2%
CCOc1cc(S(=O)(=O)Nc2cc(C)cc(C)c2)ccc1Cl	-13.3	1.4	4.3	-22.2%	-3.2	-10.5%
COc1cccc(NC(=O)C2(C)CCN2C(=O)CC2CCCC2)c1 (centres undefined)	-6.3	9.6	-8.2	·	3.3	·
CCCCN1CC[C@H]2C=CC[C@@H](C(=O)NCc3ccc(OC)cc3)[C@H]2C1=O	2.9	-9.4	2.4	·	0.6	9.9%
CCC(=O)N1CCN(c2cc(NCC3CCCO3)c(F)cc2[N+](=O)[O-])CC1 (centres undefined)	-13.8	-1.5	-5.4	-13.0%[15.4 µM]	3.1	-2.5%
CCC(=O)NC(=S)Nc1ccc(NC(=O)COc2ccc(Cl)cc2Cl)cc1	-17.4	-4.3	-10.1	-12.5%	0.9	-2.1%
Cc1ccc(S(=O)(=O)NC(=O)NCCCCNC(=O)NS(=O)(=O)c2ccc(C)cc2)cc1	-2.1	4.2	3.7	2.3%	-0.3	-0.1%
COc1cccc(CNC(=O)CCS(=O)(=O)c2cc3c(cc2C)NC(=O)CO3)c1	-2.5	-4.1	-9.8	-40.5%[inhibitor]	1.3	-2.2%
O=C(NNC(=O)c1ccc(Br)o1)c1ccc(NC(=O)c2ccccc2)cc1	0.3	2.8	-3.0	13.3%[15.4 µM]	-1.8	·
CCCc1nnc(NC(=O)c2cn(CC)c3cc(N4CCN(C)CC4)c(F)cc3c2=O)s1	-0.5	-0.6	5.0	-0.2%	-2.0	1.9%
COc1ccc(CC(=O)OCC(=O)NCc2ccc(Cl)cc2)cc1	-4.1	-3.3	-4.2	17.3%	2.7	6.9%
O=C(Nc1ccccc1)N(CCCN1CCOCC1)Cc1cc2cc3c(cc2[nH]c1=O)OCCO3	-0.1	-3.5	1.4	-48.2%[inhibitor]	-1.8	0.4%
CCOC(=O)N1CCN(C(=O)c2cc(OC)cc(OC)c2)CC1	-5.7	5.7	5.4	2.3%	-2.0	1.8%
CCN1CCN(C(c2ccccc2)c2nnnn2Cc2ccc3c(c2)OCO3)CC1 (centres undefined)	-6.2	1.9	3.0	-25.1%	-18.0	6.6%
Cc1ccc(C)c(N/C(N)=N/c2nc(C)cc(C)n2)c1	-26.1	-7.5	15.7	-13.7%	-8.0	14.6%

Rewritten bar-delimited: part of the list above.
molecule | D2 potentiator | Six1-Eya2 inh | CtBP-E1A blk | gsp agonist | D2 ag | gsp antag
COc1ccc(CC(=O)OCC(=O)NCc2ccc(Cl)cc2)cc1 | -4.1 | -3.3 | -4.2 | 17.3% | 2.7 | 6.9%
Cc1ccc(C)c(N/C(N)=N/c2nc(C)cc(C)n2)c1 | -26.1 | -7.5 | 15.7 | -13.7% | -8.0 | 14.6%
O=C(Nc1ccccc1)N(CCCN1CCOCC1)Cc1cc2cc3c(cc2[nH]c1=O)OCCO3 | -0.1 | -3.5 | 1.4 | -48.2%[inhibitor] | -1.8 | 0.4%
CCOC(=O)N1CCN(C(=O)c2cc(OC)cc(OC)c2)CC1 | -5.7 | 5.7 | 5.4 | 2.3% | -2.0 | 1.8%
O=C(NNC(=O)c1ccc(Br)o1)c1ccc(NC(=O)c2ccccc2)cc1 | 0.3 | 2.8 | -3.0 | 13.3%[15.4 µM] | -1.8 | ·
Cc1ccc(S(=O)(=O)NC(=O)NCCCCNC(=O)NS(=O)(=O)c2ccc(C)cc2)cc1 | -2.1 | 4.2 | 3.7 | 2.3% | -0.3 | -0.1%

The list goes on.
SMILES	D2 potentiator	Six1-Eya2 inh	CtBP-E1A blk	gsp agonist	D2 ag	gsp antag
COCCCN1C(=O)c2ccc(C(=O)NCc3ccco3)cc2C1=O	-21.4	9.8	1.2	-34.6%[inhibitor]	-0.2	2.7%
CCN(CC)S(=O)(=O)c1cccc(NC(=O)COC(=O)CCC(=O)c2cccs2)c1	-1.2	-2.9	0.0	?	1.9	0.0%
CCOC(=O)c1[nH]c2cc(OC)c(OC)cc2c1NC(=O)CCN1CCSCC1	-9.7	4.6	7.2	-13.7%[15.4 µM]	0.3	1.9%
CC(C)CSc1ncc(-c2cccc(C(F)(F)F)c2)cn1	-7.6	38.2	38.1	27.3%	-1.6	-8.3%
CCOC(=O)c1ccccc1NC(=O)c1n[nH]c(=O)c2ccccc12	-8.9	10.7	-6.5	-2.2%	-0.5	18.2%
CN1CCc2nc3sc(C(=O)C45CC6CC(CC(C6)C4)C5)c(N)c3cc2C1	-7.3	9.9	0.7	21.4%	-1.3	-3.1%
CCC(C)NC(=O)CN1C(=O)NC2(CCOc3ccccc32)C1=O (centres undefined)	-5.3	1.2	3.8	-2.0%	-3.0	5.1%
COc1ccc(NC(=O)CN2CCN(S(=O)(=O)c3ccc(Cl)cc3)CC2)cc1Cl	4.2	-2.6	6.6	2.3%	1.2	-12.0%
CN(C)c1ccc(/C=C/C(=O)c2cccnc2)cc1	-7.0	-2.9	0.0	23.7%	0.5	-8.9%
CCOC(=O)CN1C(=O)S/C(=C/c2cccc([N+](=O)[O-])c2O)C1=O	-5.7	-10.0	·	-38.8%[15.4 µM]	-4.9	-27.7%
O=S(=O)(c1ccc(Cl)s1)N1CCCc2cccc(O)c21	4.0	-7.9	-1.1	-35.1%	-4.5	-34.6%
COc1ccc([N+](=O)[O-])cc1NC(=O)CCN1CCN(c2ccccc2OC)CC1	-33.5	-9.0	-5.7	-22.0%	2.5	-6.3%
COc1ccc(CC(=O)Nc2ccc(C(=O)Nc3nccs3)cc2)cc1OC	4.6	-81.3*	-74.4*	-7.2%[15.4 µM]	3.4	-6.6%
CCN(CC)/C(=N\S(=O)(=O)c1ccccc1C)c1ccccc1	0.0	7.6	9.4	32.2%	-2.5	19.2%
Cc1nn(-c2ccccc2)c2nc(-c3ccccc3)cc(C(=O)N3CCOCC3)c12	-6.1	11.3	0.7	4.5%[15.4 µM]	-1.3	?
COc1ccc(NC(=O)CN2CCN(CC(=O)Nc3ccc(OC)c(OC)c3)CC2)cc1	2.0	1.5	6.5	3.7%	-1.9	-8.6%[15.4 µM]
O=C(CSc1nnc2c(n1)[nH]c1ccccc12)NCc1ccco1	-2.2	-10.6	·	-35.3%[inhibitor]	0.2	1.8%
Cc1cccc(S(=O)(=O)NC(=O)C2(C)CCN2C(=O)Cc2ccsc2)c1 (centres undefined)	2.2	4.1	6.0	·	-2.0	·
COc1ccc(NC(=S)NNC(=O)c2ccco2)c(OC)c1	-13.2	-3.3	-11.9	-36.3%[inhibitor]	-2.9	-3.5%
COc1cccc(C(=O)OCCNC(=O)c2cccnc2)c1	-7.8	8.6	7.4	-2.1%	1.6	5.2%
COc1ccccc1N1C(=O)c2ccccc2NC1c1ccncc1 (centres undefined)	?	5.4	1.7	28.3%	-1.2	11.7%
COCc1cc(C)nc(OCC(=O)N/N=C/c2ccc(OC)c(OC)c2)c1C#N	-2.5	?	?	-40.9%[15.4 µM]	-4.3	-4.3%
O=C(Nc1nc2cc3c(cc2s1)OCCO3)c1cccc(N2C(=O)CCC2=O)c1	2.5	4.5	-1.1	?	5.0	-16.2%
CCC(C(=O)NCCCN1CC(C)CC(C)C1)n1ncn2c(cc3occc32)c1=O (centres undefined)	-35.0	-0.1	-5.9	?	-2.7	8.8%
CN(C)c1ccc(N=Cc2nc(-c3ccccc3)oc2OC(=O)c2ccccc2)cc1	3.4	-3.8	-1.6	?	-4.1	29.1%
c1cncc(-c2noc(CC3CCCCC3)n2)c1	5.5	4.8	3.8	-40.6%[inhibitor]	-2.2	-1.6%
